VACV mCherry inh: inhibitors of vaccinia virus infection (mCherry reporter signal); Vaccinia virus mCherry reporter infection, fluorescence; about a quarter of the inactives have no number; AID 720579; Potency, µM (titrated, usually from 36.5 µM), for the others: top-dose activity change, negative = inhibition, actives largely listed as inhibitors; 0.63% of 310,000 active; active = well fitted inhibition curve with a large enough effect; inconclusive = small, poorly fitted or top-dose-only effect; inactive = no such curve, though single readings can be large or run the other way; tested in A549 cells; further: nearly all actives have a fitted effect of over 35% in size; inactives centre near -10
Vaccinia Venus: vaccinia inhibition (Venus reporter); Potency, µM (series often up to 36.5 µM), without a hit: at the top dose activity change, negative = inhibition, actives largely listed as inhibitors; 0.46% of 330,000 active; AID 720580; Vaccinia virus Venus reporter expression, fluorescence; active means well fitted inhibition curve with a large enough effect; inconclusive means small, poorly fitted or top-dose-only effect; inactive means no such curve, though single readings can be large or run the other way; tested in A549 cells; further: nearly all actives have a fitted effect of over 30% in size; inactives centre near -10
* = called active by the depositor; i = inactive; ? = inconclusive; · = not tested or not shown; [ ] = remark or other dose. On the % scale 0 is the no-effect control and ±100 the full control effect; potency means the concentration at half of the fitted maximal effect. The order is random; 0.88% or so of the library scored in one or more.

SMILES	VACV mCherry inh	Vaccinia Venus
CCOC(=O)c1cn2nc(Oc3cccc(C(F)(F)F)c3)ccc2n1	-6%	-6%
Cc1cnc(NC(=O)Cc2ccc(S(=O)(=O)N3CCOCC3)s2)s1	-13%	-6%
COc1cc(Cl)c(C)cc1NC(=O)c1cc(S(=O)(=O)N2CCCC2)ccc1F	-7%	-14%
COc1ccc(N2CCN(C(=O)NC(=O)c3ccccc3)CC2)cc1	-10%	-26%
CN1C(C(=O)Nc2ccc(OC(F)(F)F)cc2)=CC(c2ccco2)=NS1(=O)=O	i	-13%
CCc1ccc(N(CC(=O)N2CCCCCC2)S(C)(=O)=O)cc1	-16%	-19%
Cc1ccc(N2CCN(C(=O)C(=O)c3cccc([N+](=O)[O-])c3)CC2)cc1	?	-10%
Cc1ncc(CO)c(/C=N/NC(=O)c2ccoc2C)c1O	-15%	-17%
Cc1ccc(N(CC(=O)Nc2ccc(F)c(Cl)c2)S(=O)(=O)c2c(C)noc2C)cc1	-27%	-19%
CCOC(=O)c1cn(CC)c2ccc(S(=O)(=O)N3CC(C)CC(C)C3)cc2c1=O (centres undefined)	-5%	-16%
CCOc1ccc(/C=N/OCC(=O)Nc2ccc(OCc3ccccc3)cc2)cc1OC	-16%	-8%
Cc1ccc(NC(=O)c2cccc(OC(F)F)c2)c(OC(F)F)c1	i	-10%
O=C(Cn1nc(-c2ccc(Cl)cc2)ccc1=O)NCC1COCCO1 (centres undefined)	i	-5%
O=c1c2c(nc3c(-c4ccccc4)c[nH]n13)CCC2	-7%	-22%
CCCN(CC(=O)Nc1ccc(Cl)cc1Cl)C(=O)/C=C/c1cc(OC)ccc1OC	-4%	-15%
CC(=O)Oc1cccc(/C=C2\Sc3ccccc3C2=O)c1	-14%	-13%
COc1ccc(C(NC(=O)CC(C)C)NC(=O)CC(C)C)cc1OC	·	-10%
Clc1cccc(CNCCCSc2nnnn2-c2ccccc2)c1	-7%	-12%
COc1ccc(CCNC(=O)CSc2ncc(C(=O)Nc3ccccc3)c(=O)n2C)cc1	-9%	-10%
CNc1ncc(C(=O)c2ccc(F)cc2)s1	-5%	-3%
CCOC(=O)N1CCN(C(=O)CSc2nc(CC)nc3c2c(=O)n(C)c(=O)n3C)CC1	-2%	-2%
COc1ccc(C(=O)NCCCCCCNC(=O)c2ccc(OC)cc2)cc1	-10%	-1%
Cc1ccc(CN2CCN(C(=O)CCN3C(=O)c4ccccc4C3=O)CC2)cc1	i	-13%
C=CCNc1ncnc2c1[nH]c1ccc(Cl)cc12	?	?
CCN1C(=NCCCOC(C)C)N[C@@H](CCc2ccccc2)[C@H](C(=O)NCCCOC(C)C)[C@H]1C	-19%	-22%
Cc1cc(C)c(NC(=O)c2sc3nc4c(cc3c2N)C(=O)CC(C)(C)C4)c(C)c1	i	-11%
COc1cc(/C=N/NC(=O)c2ccncc2)ccc1OCC(=O)Nc1ccc(C)c(C)c1	-9%	-13%
NNC(=O)c1cc2c(N3CCC(Cc4ccccc4)CC3)ncnc2s1	-22%	-15%
COCCN1C(=O)C(CC(=O)Nc2ccc(C(=O)O)cc2)SC1=Nc1ccccc1 (centres undefined)	-11%	-5%
CCCCCCC[n+]1ccc(/C=C/c2c(C)[nH]c3ccccc23)c2ccccc21	·	i
COc1cc(C(=O)NC2CC(C)CC(C)(C)C2)cc(OC)c1OC (centres undefined)	i	-11%
Fc1ccc(COc2cccc3cccnc23)cc1	-6%	-15%
CCNC(=O)C1(C)CCN(Cc2ccc(C#N)cc2)C1 (centres undefined)	-12%	-7%
CC(C)=CCN1CCN(Cc2cnc(N3CCCC3)s2)CC1CCO (centres undefined)	-3%	-1%
COc1ccc(-n2c(O)c(/C=N/Nc3nc(C)cc(C)n3)c3ccccc3c2=O)cc1OC	?	?
COC(C(=O)C(O)C(C)O)C1Cc2cc3cc(OC4CC(OC5CC(O)C(O)C(C)O5)C(O)C(C)O4)c(C)c(O)c3c(O)c2C(=O)C1OC1CC(OC2CC(OC3CC(C)(O)C(O)C(C)O3)C(O)C(C)O2)C(O)C(C)O1 (centres undefined)	0.28µM*	0.28µM*

Single values from above:
Entry for Fc1ccc(COc2cccc3cccnc23)cc1 in VACV mCherry inh: -6%
Entry for COc1cc(/C=N/NC(=O)c2ccncc2)ccc1OCC(=O)Nc1ccc(C)c(C)c1 in Vaccinia Venus: -13%
Entry for CCOC(=O)c1cn(CC)c2ccc(S(=O)(=O)N3CC(C)CC(C)C3)cc2c1=O (centres undefined) in VACV mCherry inh: -5%

Next section:
SMILES	VACV mCherry inh	Vaccinia Venus
Cc1ccc(C(=O)N[C@H](C(=O)N2CCN(c3ncccn3)CC2)C(C)C)cc1	-10%	-17%
O=c1c(O)c(-c2cccs2)oc2ccc(Cl)cc12	-11%	53%[activator]
C=CCNC(=O)NC(=O)CN1C(=O)NC(c2ccccc2)(c2ccccc2)C1=O	i	-12%
Cc1cc(C)c2nc(Nc3nc(CSc4nc5ccccc5[nH]4)cc(=O)[nH]3)nc(C)c2c1	-3%	-15%
O=C(NN=Cc1ccc(N(CCCl)CCCl)cc1)c1cccc([N+](=O)[O-])c1	i	-24%
O=C(CS(=O)(=O)c1cn(CC(=O)N2CCOCC2)c2ccccc12)NCc1ccc(F)cc1	i	-11%
CCOC(=O)N1CCc2c(sc3c2c(=O)n(CCc2ccccc2)c(=O)n3Cc2ccc(F)cc2)C1	-21%	-18%
CC(C)NC(=O)Cn1cc(C(=O)C(=O)N2CCOCC2)c2ccccc21	-19%	-7%
CCN1C[C@@H]2[C@@H]3C(=O)N(Cc4ccccc4)C(=O)[C@@H]3[C@](CC)(C1=O)N2C(=O)c1ccc(C(F)(F)F)cc1	i	-2%
Cc1c(Cl)c([N+](=O)[O-])nn1CC(=O)NC12CC3CC(CC(C3)C1)C2	·	-21%
COc1cc(/C=C2/SC(=O)NC2=O)ccc1OC(=O)c1ccco1	-27%	-21%
COc1ccc(CN2C(=NC(=O)C3CCCCC3)SC3CS(=O)(=O)CC32)cc1 (centres undefined)	-2%	-8%
O=C(C/C=N/OCc1ccc(F)cc1Cl)c1cnc(-c2ccccc2)s1	·	-6%
CCCN1CCN(C(=S)Nc2ccc([N+](=O)[O-])cc2)CC1	-3%	-13%
NS(=O)(=O)c1ccc(NC(=O)COC(=O)COc2ccccc2)cc1	i	3%
CC1CCCCC1NC(=O)COCc1cc(-c2cccs2)on1 (centres undefined)	-19%	-21%
CCOC(=O)c1c(NC(=O)c2cc(-c3ccc(OC)c(OC)c3)on2)sc2c1CCCC2	6%	11%
CCN(CC)CCn1c2c(c(SCC(=O)Nc3ccc(C)c(F)c3)nc1=O)CCC2	-15%	-11%
COc1ccccc1NC(=O)c1c(N=Cc2c(O)ccc3ccccc23)cnn1C	?	-26%
CCn1c(=O)c([N+](=O)[O-])c(NCC(O)c2ccccc2)c2ccccc21 (centres undefined)	-11%	-8%
Cc1ccccc1C(=O)Nc1nnc(S(=O)(=O)N(C)c2ccc(Cl)cc2)s1	i	-25%
CCCCCCCNC(=O)C1(CC2CC(c3cccc(Br)c3)=NO2)CCN(C(=O)CCCCCBr)CC1 (centres undefined)	-25%	?
CN(C)c1ccc(C2Nc3ccccc3C(=O)N2NS(=O)(=O)c2ccccc2)cc1 (centres undefined)	-8%	-13%
COc1ccc(C)cc1NC(=O)COc1cc(=O)n(C)c2ccccc12	-9%	-14%
CCN(CC(=O)Nc1ccc2c(c1)OCCO2)C(=O)/C=C/c1ccc([N+](=O)[O-])cc1	-21%	-18%
Cc1ccc(C(=O)N(c2ccc(C)cc2)S(=O)(=O)c2ccc(Cl)cc2)cc1	-13%	-6%
COCCN1C=C(C(=O)OC)C(c2cc(Br)c(OC)c(OC)c2)C(C(=O)OC)=C1	·	?
CCCN=C1N(CC)C[C@@H]2[C@@H]3C(=O)N(Cc4ccccc4)C(=O)[C@@H]3[C@](C)(C(=O)OC)N12	-19%	-11%
CCOc1ccc(/C=C/c2ccnc3ccccc23)cc1OCC	-17%	-14%
Cc1nonc1OCCN1CCN(c2ccc([N+](=O)[O-])cc2)CC1	i	-3%
O=C(COC(=O)c1ccco1)Nc1cccc(Br)c1	·	-7%
CCOC(=O)N1CCN(C(=O)C[C@@H]2C[C@@]3(C(=O)OC)CCCCC=C3N(Cc3ccc(Cl)cc3Cl)C2=O)CC1	11%	-18%
CCOC(=O)[C@H]1[C@H]2COc3ccc(Cl)cc3[C@@H]2N2C(=O)c3ccc(Cl)cc3NC(=O)[C@@]12C	?	?
COc1ccc(C(=O)COC(=O)c2ccc3c(c2)OCO3)c(OC)c1	i	-3%
C(=N\N1CCOCC1)/c1ccsc1	i	-3%
CC(=O)Nc1ccc(NC(=O)COC(=O)Cc2c[nH]c3ccccc23)cc1	-15%	-9%
CCc1ccc(-n2cc(-c3ccc([N+](=O)[O-])cc3)[nH]c2=S)cc1	i	-16%
Cc1cc(Cl)ccc1OCC(=O)NN1C(=O)C2C3C=CC(C3)C2C1=O (centres undefined)	i	1%
CCCN(C)C[C@@H]1Oc2ncc(Br)cc2C(=O)N([C@@H](C)CO)C[C@H]1C	i	-16%
CCOc1ccc2[nH]c(=O)c(CN(CCO)C(=O)c3ccc(Br)cc3)cc2c1	i	-11%
COc1cc(NCCCn2cnc3c(OCc4ccccc4)ncnc32)cc(OC)c1OC	?	-28%
O=C(/C=C/c1ccc(Br)cc1)N1CCN(Cc2ccccc2)CC1	?	16%
CCCCSP1(=S)NCCCN1	·	10%
Cc1cc(S(=O)(=O)c2ccc(Cl)cc2)nc(S(=O)(=O)c2ccc(Cl)cc2)c1C#N	11µM*	11µM*
CN(C)c1nc2c(c(=O)n(C)c(=O)n2C)n1CC(=O)c1cccs1	3%	-3%
CCCc1cc(-c2n[nH]c(=S)n2CC)cs1	-15%	-10%
CCCOc1ccc(F)cc1-c1cc(C(=O)Nc2ccccc2)[nH]n1	-21%	-20%
COC(=O)c1ccccc1S(=O)(=O)N1CCC(C(=O)OCc2cccc(OC)c2OC)CC1	i	-14%
CCOc1ccccc1NC(=O)C1=C(C)NC(=O)NC1c1cccs1 (centres undefined)	-6%	-19%
O=C(COc1ccc(Cl)cc1)NC1CN2CCC1CC2 (centres undefined)	·	-16%
O=C(O)CSc1nnc(Cn2cnc3ccccc32)n1CCc1ccccc1	-8%	-7%
Cc1ccc(CNC(=O)Cn2ccc(NC(=O)OCc3ccccc3)nc2=O)o1	i	-14%
O=C(c1ccco1)N1CCN(CC(O)Cn2c3ccccc3c3ccccc32)CC1 (centres undefined)	-29%	-13%
CCCCCn1c(=N)c(S(=O)(=O)c2ccc(Cl)cc2)cc2c(=O)n3cccc(C)c3nc21	-20%	-18%
COc1cc2c(c(OC)c1OC)-c1ccc(O)cc1C(NC(C)=O)CC2 (centres undefined)	i	?
COc1ccccc1-c1nnc(SCC(=O)c2ccc(C3CCCCC3)cc2)n1Cc1ccco1	·	?
CCS(=O)(=O)N1CCN(Cc2c[nH]c3ccccc23)CC1	-3%	-1%
O=C(OCc1cc(=O)n2ccsc2n1)C1(c2ccccc2)CC1	-9%	-14%
COc1ccc(CNC(=O)c2c(Nc3ccccc3C)sc(C(=O)c3ccccc3)c2N)cc1	?	-30%
O=C(NCCc1ccc(Cl)cc1)C(=O)NCC(c1cccs1)S(=O)(=O)c1ccccc1 (centres undefined)	-5%	-5%

(listing goes on)
SMILES	VACV mCherry inh	Vaccinia Venus
CCCCCOc1ccc(/C=C/c2c([N+](=O)[O-])c(=O)n(C)c(=O)n2C)cc1	-6%	-6%
O=C(CC1C[C@H](C(=O)N2CCOCC2)[C@@]2(CCC3CCCC3)c3[nH]c4ccccc4c3CCN2C1=O)NCc1cccc(C(F)(F)F)c1 (some centres undefined)	10µM*	10µM*
CCOC(=O)[C@]12CCCC=C1N(Cc1cccc3ccccc13)C(=O)[C@H](CC(=O)NCc1cccc3ccccc13)C2	-6%	-14%
Cc1ccc(C(=O)COC(=O)CCC(=O)NC2CCCCC2)cc1[N+](=O)[O-]	-26%	-2%
O=C(O)C(CO)N=Cc1c(O)c2ccccc2oc1=O (centres undefined)	?	?
CCOc1ccc(CNc2nnnn2C)cc1OC	-14%	-9%
Cc1ccc2ncccc2c1[N+](=O)[O-]	-3%	-4%
Cc1cnc(NC(=O)c2ccc(OCC3CCCO3)cc2)s1 (centres undefined)	-6%	-7%
CCOP(=S)(OCC)SCOC(=O)NCC(=O)OC	·	1%
CCN1C(=O)CC(CC(=O)N2CCCCC2c2nccs2)(c2ccccc2C)C1=O (centres undefined)	-9%	2%
O=c1[nH]c(SCc2ccc([N+](=O)[O-])cc2)nc2[nH]ncc12	-6%	-16%

2 entries drawn at random from those above, as already listed:
SMILES	VACV mCherry inh	Vaccinia Venus
CCOC(=O)[C@]12CCCC=C1N(Cc1cccc3ccccc13)C(=O)[C@H](CC(=O)NCc1cccc3ccccc13)C2	-6%	-14%
CCOC(=O)c1cn(CC)c2ccc(S(=O)(=O)N3CC(C)CC(C)C3)cc2c1=O (centres undefined)	-5%	-16%

Entries listed so far with a furan ring, fused or not (7):
SMILES	VACV mCherry inh	Vaccinia Venus
CN1C(C(=O)Nc2ccc(OC(F)(F)F)cc2)=CC(c2ccco2)=NS1(=O)=O	i	-13%
Cc1ncc(CO)c(/C=N/NC(=O)c2ccoc2C)c1O	-15%	-17%
COc1cc(/C=C2/SC(=O)NC2=O)ccc1OC(=O)c1ccco1	-27%	-21%
O=C(COC(=O)c1ccco1)Nc1cccc(Br)c1	·	-7%
Cc1ccc(CNC(=O)Cn2ccc(NC(=O)OCc3ccccc3)nc2=O)o1	i	-14%
O=C(c1ccco1)N1CCN(CC(O)Cn2c3ccccc3c3ccccc32)CC1 (centres undefined)	-29%	-13%
COc1ccccc1-c1nnc(SCC(=O)c2ccc(C3CCCCC3)cc2)n1Cc1ccco1	·	?

High-throughput results as filed in PubChem BioAssay.
